GIV Gai3 FP: inhibitors of GIV peptide binding to Galpha-i3, primary screen, biochemical, fluorescence polarization, FITC-GIV GBA peptide, rat Galphai3; percent of control (FP), % (no concentration beside the values); 90 min; active compounds read low; scaled: aluminum fluoride 0%, vehicle 100%; 0.42% of 210,000 active; AID 1224905, 2016; Guanine nucleotide-binding protein G(i) subunit alpha-3 (Rattus norvegicus), P08753;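 active means replicate mean at 85% of control or lower, very high polarization wells dropped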;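 further: wells of about 15 µL received 100 nL stock; the first replicate is given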
Target sequence (P08753 whole entry, looked up): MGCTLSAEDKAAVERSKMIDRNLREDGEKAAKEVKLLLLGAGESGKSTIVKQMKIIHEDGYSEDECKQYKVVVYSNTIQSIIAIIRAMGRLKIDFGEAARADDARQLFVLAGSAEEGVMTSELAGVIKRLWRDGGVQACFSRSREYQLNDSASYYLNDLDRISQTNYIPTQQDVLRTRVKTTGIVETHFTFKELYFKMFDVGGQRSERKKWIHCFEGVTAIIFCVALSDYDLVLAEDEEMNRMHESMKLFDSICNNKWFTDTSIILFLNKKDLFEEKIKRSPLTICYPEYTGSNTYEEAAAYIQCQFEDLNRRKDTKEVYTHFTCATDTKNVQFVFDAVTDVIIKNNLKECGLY
Sa growth 42C: S. aureus growth inhibition at 42 and 30 °C, primary screen, LtaS inhibitor project, RN4220, two temperatures. OD600, 20 h, 42 °C; active compounds read low. relative growth, % (test concentration not listed). 0.53% of 170,000 active;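 active means growth at 42 °C up to 50% and 20 or more points under that at 30 °C, or under 10% at both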;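 further: 300 nL library stock went into each well; scaled to the means of positive and negative controls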
HCMV NEC inh: inhibitors of HCMV UL50-UL53 interaction, biochemical, HTRF. HCMV UL50-UL53 nuclear egress complex (human cytomegalovirus). normalized percent inhibition. inhibition, % (no concentration beside the values). 0.15% of 190,000 active. AID 1918969, 2023;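 active means both replicates at 50% or more, plus weaker picks with an unusually low signal ratio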;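 further: stock transfer was 100 nL into about 20 µL; 0% = negative control wells and 100% = wells with untagged competitor protein; inactives centre near -12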
Sa growth 42C second temp: second read-out of Sa growth 42C, no call of its own (marks repeat the call); relative growth, %; measured here: growth at 30 °C;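 optical density after 20 h as mean of two plates; 100% = untreated growth and lower means inhibition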
An asterisk follows results filed as active; i = inactive; / = not tested or not shown; & = joins results of further samples.

(1) Cc1nn(-c2ccc(F)cc2)c(C)c1S(=O)(=O)Nc1cc(F)ccc1F
(2) CCn1c(C)nc2cc(C(=O)O)ccc21
(3) CC1CCC(C#N)(N(C)C(=O)CSc2nc(C3CC3)n(-c3ccccc3)n2)CC1 (stereo unspecified)
(4) O=C(NC(=O)C1CCNCC1)c1cc2c(s1)CSC2
(5) COC(=O)CCN1C(=O)/C(=C\c2ccc(N(C)C)cc2)SC1=S
Assay by compound,1,2,3,4,5
GIV Gai3 FP,114,107,/,104,102
Sa growth 42C,/,113,91,96,94
Sa growth 42C second temp,/,78,69,87,86
HCMV NEC inh,-10,4,-2,-12,-20

(6) COC(=O)c1ccc(NC(=O)CN2C(=O)CC(c3ccccc3)Sc3ccccc32)cc1 (stereo unspecified)
(7) CCC(COc1nnnc2ccccc12)NC(=O)C1CCN(S(C)(=O)=O)CC1 (stereo unspecified)
(8) O=C(CSc1ccc2c(c1)OCCO2)N1CCc2ccccc21
(9) Cc1nnc2ccc(N3CCC(C)CC3)nn12
(10) CC1=NCCCN1C(=O)c1c(-c2c(Cl)cccc2Cl)noc1C
Assay by compound,6,7,8,9,10
GIV Gai3 FP,104,106,/,102,102
Sa growth 42C,99,110,107,/,98
Sa growth 42C second temp,89,95,93,/,89
HCMV NEC inh,-43,2,-10,-37,-22

(11) O=c1cc(CN2CC(O)Cc3ccc4ccccc4c32)nc2sccn12 (stereo unspecified)
(12) O=C(CSc1ccccn1)N1CCCc2ccccc21
(13) CN(C)S(=O)(=O)c1ccc2c(c1)nc(C(F)(F)F)n2CCC(=O)Nc1cccc(Cl)c1
(14) Cc1cc(/C=N/N2CCOCC2)c(C)n1-c1cccc2ccccc12
(15) Cc1nc(CSc2n[nH]c(=O)n2Cc2ccccc2)cs1
Assay by compound,11,12,13,14,15
GIV Gai3 FP,/,/,105,/,103
Sa growth 42C,114,95,/,124,115
Sa growth 42C second temp,94,104,/,94,99
HCMV NEC inh,-7,10,-22,0,3

(16) O=C(COC(=O)C1CCN(C(=O)Nc2ccccc2)CC1)Nc1ccc2c(c1)OCO2
(17) COc1ccc(/C=C/c2nc(Cn3cnc4ccccc4c3=O)no2)cc1
(18) CCC(=O)N1CCN(c2nc3c(C)cccc3s2)CC1
(19) CCOc1ccc2nc(N3CCCC(C(=O)Nc4cc(Cl)c(OC)cc4OC)C3)sc2c1 (stereo unspecified)
(20) Cc1sc2nc(SCC(=O)N(CCO)CCO)n(C3CCCCC3)c(=O)c2c1C
Assay by compound,16,17,18,19,20
GIV Gai3 FP,/,110,99,106,102
Sa growth 42C,99,/,121,105,124
Sa growth 42C second temp,89,/,86,95,93
HCMV NEC inh,-3,-53,/,-7,-24

(21) CC(=O)N1CCCSc2ccc(S(=O)(=O)Nc3ccc(C)cn3)cc21
(22) Cc1nc(C)c(C(=O)N2CCN(c3ccc(-c4noc(C5CC5)n4)cc3)CC2)s1
(23) COc1cc(NC(=O)c2cc3c(=O)oc4ccc(C)cc4c3s2)cc(OC)c1OC
(24) CCN(CC)CCN(C(=O)c1ccco1)c1nc2cc(C)cc(C)c2s1
(25) CCOc1cc(-c2cccc(OC)c2)nc2ccc(C(=O)NCc3ccccc3Cl)cc12
Assay by compound,21,22,23,24,25
GIV Gai3 FP,103,104,105,106,104
Sa growth 42C,/,/,103,97,/
Sa growth 42C second temp,/,/,89,92,/
HCMV NEC inh,-30,-40,0,/,-16

(26) O=C(CCCn1c(=O)c2sccc2n(Cc2ccc(F)cc2Cl)c1=O)NCc1ccco1
(27) NS(=O)(=O)c1cc2c(cc1C(F)(F)F)NCNS2(=O)=O
(28) CCCN(CCC)C(=O)Cc1ccc(F)cc1
(29) COC(=O)Cn1c(SCc2ccccc2)nc2ccccc21
(30) CCC(=O)n1cnc2ccccc21
Assay by compound,26,27,28,29,30
GIV Gai3 FP,103,/,104,95,/
Sa growth 42C,103,90,89,100,91
Sa growth 42C second temp,80,83,71,72,87
HCMV NEC inh,-22,-12&-16&-53,-7,/,-25

(31) CCSc1nc2c(c(=O)[nH]1)C(c1ccncc1)C(C(=O)OC)=C(C)N2 (stereo unspecified)
(32) CCc1ccc2[nH]c3nc4ccccc4nc3c2c1
(33) CC(C)CC1NC(=O)N(Cc2ccc(CN3C(=O)NC(CC(C)C)C3=O)cc2)C1=O (stereo unspecified)
(34) Cc1ccc2c(c1)c1nc3ccccc3nc1n2Cc1ccccc1
(35) CSc1nnc(C2CCCN(CC(=O)NCc3cccs3)C2)n1C (stereo unspecified)
Assay by compound,31,32,33,34,35
GIV Gai3 FP,106,102,/,109,100
Sa growth 42C,105,105,86,103,83
Sa growth 42C second temp,90,80,98,77,81
HCMV NEC inh,/,-6,-1,/,i

(36) COc1ccc(OCC(=O)N(Cc2sccc2C)C2CCS(=O)(=O)C2)cc1 (stereo unspecified)
(37) O=C(c1ccccc1)N1CCN(C(=O)c2ccc3c(c2)OCO3)CC1
(38) CCOCCCNC(=O)C1c2c(n(C)c3ccccc23)SCC(=O)N1Cc1cccnc1 (stereo unspecified)
(39) Cn1c(CCc2ccc(NC(=O)C3CCCN(S(=O)(=O)N4CCCC4)C3)cc2)nc2ccccc21 (stereo unspecified)
(40) Cc1ccc(Nc2nc(C)cc(C)c2C#N)cc1
Assay by compound,36,37,38,39,40
GIV Gai3 FP,99,/,99,110,102
Sa growth 42C,107,87,/,/,81
Sa growth 42C second temp,86,104,/,/,88
HCMV NEC inh,-18,-11,-14,-10,-20

(41) CN(CCO)Cc1ccc2c(c1)OCO2
(42) Cc1ccc(NC(=O)CN2C(=O)CCc3cc(S(=O)(=O)N4CCOCC4)ccc32)cc1N(C)C
(43) N#CC(C1=NS(=O)(=O)c2ccccc21)c1nc2ccccc2n1Cc1ccccc1 (stereo unspecified)
(44) COc1cccc(CNS(=O)(=O)c2cc3[nH]c(=O)c(=O)[nH]c3cc2C)c1
(45) CCCCOc1ccc(NC(=O)c2cc(=O)c3ccc(C)cc3o2)c2cccnc12
Assay by compound,41,42,43,44,45
GIV Gai3 FP,97,103,/,110,107
Sa growth 42C,100,83,73,130,/
Sa growth 42C second temp,86,89,90,94,/
HCMV NEC inh,0,/,22,/,-21

(46) CCc1ccccc1Nc1cc(C(=O)NCc2cccnc2)c2ccccc2n1
(47) CCc1nc2ccccc2n2c(-c3ccc(C)cc3)c3c(=O)n(C)c(=O)n(C)c3c12
(48) Cc1cc(C)n(-c2nc3ccccc3nc2Nc2ccc(Cl)c(C(=O)OC(C)C)c2)n1
(49) Cn1nc(C(=O)Nc2ccc3c(c2)OC2(CCCC2)O3)ccc1=O
(50) CCOC(=O)c1ccc2[nH]c(C(=O)OCC)c(CCC(=O)O)c2c1
Assay by compound,46,47,48,49,50
GIV Gai3 FP,106,108,102,/,108
Sa growth 42C,95,90,110,71,100
Sa growth 42C second temp,83,89,90,92,89
HCMV NEC inh,/,-48,-2,-27,-24

(51) CCn1ncc(C2=NOC(C(=O)N3CCCc4ccccc43)C2)c1C (stereo unspecified)
(52) COc1cc(N(C)C)c([N+](=O)[O-])cc1C(=O)NCCN1CCN(C)CC1
(53) COc1ccc2c(c1)CCc1c-2n[nH]c1C(=O)Nc1ccc2nc(NS(C)(=O)=O)sc2c1
(54) CCOc1ccc(NC(=O)Cc2cccc3c(S(=O)O)cccc23)cc1
(55) CC1CCN(C(=O)c2cc3c(=O)n(C)c4ccccc4c3s2)CC1
Assay by compound,51,52,53,54,55
GIV Gai3 FP,97,103,102,102,103
Sa growth 42C,106,/,/,99,96
Sa growth 42C second temp,89,/,/,83,94
HCMV NEC inh,-4,-80,-33,-12,-18

The listing continues:
#	molecule	GIV Gai3 FP	Sa growth 42C	Sa growth 42C second temp	HCMV NEC inh
56	CCOC(=O)c1oc2ccc(Br)cc2c1CSc1nnc(C(F)(F)F)n1C	/	114	94	15
57	COc1ccc(-c2csc(-c3c(N)c(C(=O)c4ccc(OC)c(OC)c4)n4ccccc34)n2)cc1	105	104	88	-17
58	Cc1cccc(C)c1-n1nnnc1-c1cnccc1C(F)(F)F	103	110	97	-3
59	Nc1c(-c2nc(-c3ccccc3Cl)no2)nnn1-c1ccccc1F	104	119	95	/
60	CC(=O)NC(=S)Nc1cccc(-c2nc3c(ccc4ccccc43)o2)c1	116	115	95	-4
61	CCc1cccc(C(C)C)c1NS(=O)(=O)c1ccc(C)cc1	103	86	72	-22
62	CCOC(=O)c1sc(N)c(C#N)c1CSc1nc2sc3c(c2c(=O)n1C)CCCC3	/	103	87	3
63	Cc1ccc(OCCCSc2nc(-c3ccc(C(C)(C)C)cc3)nc3cc(=O)[nH]n23)cc1C	97	95	95	/
64	Cc1ccc(OCC(=O)OCc2cc(=O)n3nc(-c4cccs4)sc3n2)cc1C	107	101	89	/
65	CCOc1ccc(C2=C(C(C)=O)Sc3nnc(C)n3N2C(C)=O)cc1	101	115	94	/
66	CC1(C(=O)NC2CCCC2)Cn2c(cc3ccccc32)C(=O)N1c1ccc2c(c1)OCO2 (stereo unspecified)	96	/	/	1
67	COc1ccc(CNC(=O)C2CC(O)CN2C(=O)Nc2ccccc2)cc1 (stereo unspecified)	107	114	90	-3
68	CN1C(=O)c2ccccc2Sc2ccc(NC(=O)COc3ccc(Cl)cc3)cc21	103	129	85	/
69	O=C1CCCc2[nH]c(=O)c(C(=O)Nc3ccccc3Cl)cc21	123	/	/	8
70	CN(C)C(=O)Nc1ccccc1	105	110	90	-12
71	O=C(NC1CCCC1)c1ccc(-n2nc(OCc3ccc(Cl)cc3)ccc2=O)cc1	106	/	/	-66
72	Cc1[nH]c2ccccc2c(=O)c1CN(C)C	103&106	98&94	97&88	3&-2
73	CCN(CC)C(=O)c1sc2nc3c(cc2c1N)C1CCN3CC1	101	104	106	-12
74	N#Cc1c(N)nc(SCC(=O)c2cc3ccccc3oc2=O)c(C#N)c1-c1cccs1	104	/	/	-11
75	O=C1CCC(c2ccccc2)C(O)=C1C=Nc1cccnc1 (stereo unspecified)	105	93	86	-3
76	c1ccc(C2=NC2c2ccccc2)cc1 (stereo unspecified)	/	112	100	5
77	CCOC(=O)c1[nH]cnc1C(=O)Nc1ccc(C)cc1	103	91	76	/
78	CC(C)(C)c1ccc(C(=O)n2cnnc2N)cc1	/	107	84	-7
79	c1nnc2c3c4c(sc3ncn12)CCC4	105	101	96	-9
80	COC(=O)CN1C(C(=O)c2ccccc2)=C(OC(=O)c2ccc(C)cc2)c2ccccc2S1(=O)=O	100	94	80	-1
81	O=C(c1cc(C2CC2)[nH]n1)N1CCN(c2cccc(C(F)(F)F)c2)CC1	97	81	47	-3
82	Cc1cc(C)cc(NC(=O)CNCC(F)(F)F)c1	/	123	88	4
83	COC(CNC(=S)Nc1ccc(Cl)cc1)OC	107	107	99	0
84	CCC1CN(C(=O)NCc2ccc(C)cc2)c2ccccc2O1 (stereo unspecified)	107	69	103	2
85	N=C(N)SCc1nc(N)nc(N2CCCCC2)n1	/	99	98	2
86	c1ccc(-c2ccc3c(c2)c2c4n3CCNC4CCC2)cc1 (stereo unspecified)	106	0.3*	0.5*	-17
87	CCn1c(=O)cc(OCC(=O)N(C)c2ccccc2F)c2ccccc21	96	81	46	/
88	CC(C)C(NS(=O)(=O)c1ccc2c(c1)oc(=O)n2C)C(=O)NCCc1ccccc1 (stereo unspecified)	99	82	92	-22
89	O=C1c2cccc3cccc(c23)N1Cc1ccc(F)cc1Cl	110	102	102	/
90	c1ccc(-c2nnc3sc(-c4ccc5ccccc5n4)nn23)nc1	104	/	/	-39
91	CCC1CN(C(=O)Nc2ccccc2)c2ccccc2O1 (stereo unspecified)	107	113	87	-12
92	Cc1cccc2cc3c(nc12)N(C(=O)C(C)C)CC3	104	/	/	-6
93	O=C(O)c1ccc(NC(=O)c2nsc3ccccc23)cc1	101	/	/	-24
94	Cc1ccc(Nc2nc(Nc3ccc(C)c(C)c3)nc(N3CCOCC3)n2)cc1C	107	93	83	-28
95	CCOC(=O)Cn1c(=O)oc2cc(S(=O)(=O)N(C)CCC#N)ccc21	99	96	88	/
96	COC(=O)Cn1c(=N)n(CCN2CCOCC2)c2ccccc21	100	81	91	-1
97	Nc1nn(S(=O)(=O)c2ccc(Br)cc2)cc1-c1ccccc1	110	113	101	-2
98	O=C(CNc1ccccc1)N/N=C/c1ccc(F)cc1	102	90	85	-25
99	Cc1nc2sccn2c(=O)c1S(=O)(=O)N1CCC(Cc2ccccc2)CC1	106	85	71	-22
100	CCn1c(=O)c2cc(C(=O)NCC3CCCO3)sc2c2ccccc21 (stereo unspecified)	103	116	93	/
101	O=S(=O)(Nc1cc(Sc2cccc3cccnc23)c(O)c2ccccc12)c1ccc(Cl)cc1	102	108	67	/
102	O=C(/C=C/C(=O)Nc1cccc(O)c1)Nc1cccc(O)c1	101	111	86	-8
103	Cc1nn(-c2ccccc2)c(-n2cccc2)c1CNC(=O)Nc1cccc(Cl)c1	106	/	/	-25
104	CCOc1ccc(NS(=O)(=O)c2ccc3[nH]cc(C(=O)NC(C)CC)c(=O)c3c2)cc1 (stereo unspecified)	110	87	87	-7
105	COc1cccc(-c2nc3sc4c(c3c(=O)n2Cc2csc(-c3ccc(Cl)cc3)n2)CCCC4)c1	105	/	/	-17
106	O=C(Nc1ccc(S(=O)(=O)Nc2ccccc2)cc1)N1CCCC1	104&99	95&99	84&111	-25

Assay outcomes deposited in PubChem by ICCB-Longwood Screening Facility, Harvard Medical School.
